From PubChem BioAssay
Calb FLC: affects C. albicans growth with fluconazole; C. albicans CaCi-2 (fluconazole-resistant clinical isolate) + fluconazole, Alamar Blue growth, 48 h; growth inhibition, % (no concentration beside the values); hit rate 0.57% among 300,000;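 active means most replicates above 75%; inconclusive means exactly half above 75%; inactive means most below 75%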;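 further: all wells also contain fluconazole at 8 µg/ml as a sub-toxic cotreatment; 0% = median of DMSO wells and 100% = median of geldanamycin control wells; wells of about 8 µL received 7.5 nL stock; the first replicate is given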
LANA-H2B inh: blocks KSHV LANA binding to histone H2A/H2B; Q9QR71; cell-free LANA-H2A/H2B peptide, fluorescence polarization; inhibition, % (no concentration beside the values); hit rate 0.6% among 320,000; AID 2629; in the data active means inhibition mostly above about 10%, no sharp cut-off; inactive means mostly below about 6.7%;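 further: stock transfer was 7.5 nL into about 10 µL; 0% = median of vehicle wells and 100% = median of positive control wells; one replicate is shown; the record names a cut of 25% in any replicate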
Target sequence (Q9QR71 whole entry, looked up): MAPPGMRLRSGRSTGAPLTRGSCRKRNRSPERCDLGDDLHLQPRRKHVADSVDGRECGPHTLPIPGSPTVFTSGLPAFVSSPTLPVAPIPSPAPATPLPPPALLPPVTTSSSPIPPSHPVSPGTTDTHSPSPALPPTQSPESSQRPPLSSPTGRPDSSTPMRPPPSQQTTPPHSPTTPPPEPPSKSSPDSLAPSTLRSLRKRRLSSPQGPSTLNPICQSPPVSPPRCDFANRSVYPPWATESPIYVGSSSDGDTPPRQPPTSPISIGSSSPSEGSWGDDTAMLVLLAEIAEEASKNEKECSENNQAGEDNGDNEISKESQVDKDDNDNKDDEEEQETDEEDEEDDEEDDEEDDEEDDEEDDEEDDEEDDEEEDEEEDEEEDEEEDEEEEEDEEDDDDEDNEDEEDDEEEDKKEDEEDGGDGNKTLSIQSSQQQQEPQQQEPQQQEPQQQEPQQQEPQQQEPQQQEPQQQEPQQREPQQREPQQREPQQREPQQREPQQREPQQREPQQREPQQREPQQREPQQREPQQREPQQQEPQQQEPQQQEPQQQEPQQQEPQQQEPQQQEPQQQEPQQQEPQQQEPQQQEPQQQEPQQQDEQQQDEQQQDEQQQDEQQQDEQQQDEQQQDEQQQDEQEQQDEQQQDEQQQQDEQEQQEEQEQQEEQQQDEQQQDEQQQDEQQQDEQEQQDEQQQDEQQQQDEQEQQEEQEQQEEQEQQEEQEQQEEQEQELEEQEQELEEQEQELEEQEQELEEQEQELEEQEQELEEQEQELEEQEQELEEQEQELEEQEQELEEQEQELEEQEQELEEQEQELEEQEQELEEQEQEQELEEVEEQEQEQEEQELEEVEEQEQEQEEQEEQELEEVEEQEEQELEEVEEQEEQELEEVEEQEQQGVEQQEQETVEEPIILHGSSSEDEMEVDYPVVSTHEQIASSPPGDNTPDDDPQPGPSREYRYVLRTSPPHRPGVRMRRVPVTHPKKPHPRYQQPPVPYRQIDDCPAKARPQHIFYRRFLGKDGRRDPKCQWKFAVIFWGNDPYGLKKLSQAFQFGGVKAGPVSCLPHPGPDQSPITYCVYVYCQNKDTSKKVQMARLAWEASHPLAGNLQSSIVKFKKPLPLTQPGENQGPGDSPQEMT
Bfl-1 A1 inh: inhibitors of the anti-apoptotic protein A1, read as caspase activation; hit rate 0.066% among 330,000; caspase activation, % (test concentration not listed); MEF A1-2A-BIM cells, Caspase-Glo 3/7 luminescence, 3 h; percent of clofoctol response, vehicle zero; AID 2462;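 active means over half of replicate activation scores above 10%, or exactly half above 10 with the replicate mean above 10; inconclusive means replicate mean below 10 yet half the replicates above 10; inactive means over half of replicates below 10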;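 further: wells of about 30 µL received 50 nL stock; many hits fall short of the cut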
rRNA inh HTS: inhibits bacterial ribosomal RNA function over humanized ribosomes; E. coli WT GFP vs humanized-ribosome RFP mutants, fluorescence, 24 h; active compounds read low; DMSO median 0, no signal -100; GFP signal change (wild-type ribosome), % (test concentration not listed); hit rate 1.6% among 350,000; AID 720706;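 active means significant combined selectivity score with lowered wild-type GFP, culture density cut under 30%, mutant RFP and density less affected; inactive means any of these conditions unmet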; further: one replicate is shown; some compounds called inactive have numbers as strong as hits
T cruzi repl: blocks replication of Trypanosoma cruzi; T. cruzi beta-gal in NIH3T3, luminescence, 90 h; inhibition, % (no concentration beside the values); hit rate 1.4% among 300,000; AID 1885;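 active means mean inhibition across valid replicates above about 55%, limit read from the data; inconclusive means mean below that limit but half or more replicates reach it; inactive means mean below it, under half of replicates reach it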;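 further: signal also drops with host cell toxicity which is not excluded here; 0% = plate median of DMSO wells and 100% = zero luminescence signal; higher percent means less beta-gal luminescence so fewer parasites; stock transfer was 50 nL into about 50 µL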
Beta2AR agonist: agonists of human beta-2 adrenergic receptor inducing internalization | P07550 | Am2.2-beta2AR cells, FAP receptor internalization, flow cytometry; reference of the scale not given here | response, % (no concentration beside the values) | hit rate 0.43% among 340,000 | AID 504454;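 active means response above a set limit, near 3 SD of response in nonfluorescent compounds, cut at about 42% in these data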;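 further: stock transfer was 100 nL into about 11 µL; a reference agonist was the positive control; negative values mostly stem from fluorescent compounds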
ALR inh: inhibitors of human sulfhydryl oxidase ALR; P55789; AID 485317; purified ALR, DTT oxidation, H2O2 HRP-luminol luminescence; hit rate 3.8% among 290,000; inhibition, % (test concentration not listed);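 active means mean and each replicate at 75% or more; inconclusive means only one of the two met; inactive means neither met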;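 further: stock transfer was 7.5 nL into about 7.5 µL; 0% = neutral wells and 100% = wells with inactivated enzyme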
Beta apoptosis: blocks beta cell apoptosis. INS-1E cytokine-induced death, ATP luminescence, 48 h; percent of positive-control rescue, neutral wells zero. protection from apoptosis, % (concentration not given with the values). hit rate 0.8% among 300,000;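 active means all replicates at 75% or more, or half of them and the mean; inconclusive means half reach 75% but not the mean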;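 further: 0% = cytokine-treated negative control wells and 100% = positive control rescue; higher means more ATP so stronger rescue from cytokine killing; wells of about 40 µL received 100 nL stock; the first replicate is given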
rRNA inh HTS OD600: also measured in rRNA inh HTS; calls as there; OD600 change, %; measured here: OD600 growth;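 optical density of the mix in the first replicate; 0 = DMSO median and -100 = no signal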
rRNA inh HTS RFP: recorded beside rRNA inh HTS, whose call it bears; RFP signal change, %; measured here: RFP humanized mutant strains;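 first replicate; 0 = DMSO median and -100 = no signal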
Starred values were filed as active, the others as inactive; ? = inconclusive; . = not tested or not shown. A portion of the library; rates above refer to the full screens.

Compound,Beta apoptosis,rRNA inh HTS,T cruzi repl,Beta2AR agonist,Calb FLC,Bfl-1 A1 inh,LANA-H2B inh,rRNA inh HTS RFP,ALR inh,rRNA inh HTS OD600
Nc1c(C(=O)CSc2nncn2-c2ccccc2)c(=O)[nH]c(=O)n1C1CC1,4,4,.,25,.,-1.3,2.5,-2.5,0,-4
COc1ccccc1C(=O)NCC(=O)OCC(=O)NNC(=O)c1ccc(Br)cc1,1,1,.,-21,.,-0.9,3.4,0.3,1,-3
COc1ccc(Cn2c(O)c(C=Nc3ccccc3C(=O)O)c3ccccc3c2=O)cc1,-1,-13,40,1,13,0.9,-2.4,-4.8,.,1
CC1(C)CC2CC(C)(CN2C(=O)c2cccs2)C1 (configuration not stated),-4,.,5,0,6,0.3,1.6,.,-12,.
CCN(CC)c1ccc(-c2nn3c(-c4ccccc4OC)nnc3s2)cc1,57,.,42,42*,48,2.1,-0.4,.,0,.
CCOC(=O)Cc1csc(NC(=O)Nc2ccc(F)cc2)n1,-1,-2,9,8,-9,0.1,1.0,-2.7,-1,-1
CC(C)C1(CCNC(=O)c2cccs2)CCOC(C)(C)C1 (configuration not stated),0,5,-5,-14,9,0.3,-5.6,-0.3,-5,1
COc1ccccc1CCC(=O)Nc1cccc(S(=O)(=O)N2CCCCCC2)c1,-3,1,-3,54*,-3,-1.2,1.6,-0.1,-2,-7
Cc1cccc(OCC(=O)N2CCOCC2)c1,-3,.,-4,1,-9,1.1,3.1,.,-10,.
Cc1cccc(/C(N)=N/OC(=O)c2ccncc2)c1,0,7,-5,6,-18,-12,8.7,-0.3,17,5

Further structures:
Compound,Beta apoptosis,rRNA inh HTS,T cruzi repl,Beta2AR agonist,Calb FLC,Bfl-1 A1 inh,LANA-H2B inh,rRNA inh HTS RFP,ALR inh,rRNA inh HTS OD600
CC(C)C(CCNCc1ccccn1)c1ccc(Cl)cc1 (configuration not stated),3,0,-6,-8,2,2.4,-11,0.6,-3,-6
Cc1cccc(OCC(=O)NNC(=O)CCN2CCN(c3ccccc3)CC2)c1C,-2,1,.,-5,.,0.4,-3.8,-1.2,3,-2
COCCNC(=O)C(c1ccncc1)N(Cc1ccccc1)C(=O)Cn1nnc2ccccc21 (configuration not stated),-7,16,10,-2,0,-2.2,-4.9,3.6,-18,21
COc1ccc(NC(=O)Cn2cc(C#N)c3ccccc32)cc1,-4,8,-16,8,-4,0.7,-2.3,0.3,1,-7
COc1ccc(C(=O)Nc2ccc(S(=O)(=O)Nc3nccc(C)n3)cc2)cc1OC,-8,.,8,-2,-11,-0.1,3.6,.,0,.
N#CC1=C(N)NC(SCc2ccc(F)cc2)=C(C#N)C12CCCCC2,7,.,.,3,0,1.1,-1.1,.,.,.
Cc1ccc(/C=C2\Oc3c(ccc(O)c3CN3CCN(CCO)CC3)C2=O)cc1,-8,-6,-1,8,52,-0.2,5.9,-3.8,1,4
CC(=O)Nc1ccc(NC(=O)c2cc([N+](=O)[O-])cc([N+](=O)[O-])c2)cc1,0,8,55*,3,3,-0.2,5.3,-4.7,.,11
COc1ccc(CC(=O)O/N=C(\N)c2ccncc2)cc1,-12,-6,-9,5,-4,0.9,0.4,4.3,-1,-4
CCc1ccc(NC(=O)Nc2ccon2)cc1,-3,2,-6,8,-6,-6.7,3.6,1.4,41,-1

Later entries:
Compound,Beta apoptosis,rRNA inh HTS,T cruzi repl,Beta2AR agonist,Calb FLC,Bfl-1 A1 inh,LANA-H2B inh,rRNA inh HTS RFP,ALR inh,rRNA inh HTS OD600
COc1ccc(/C=C2\SC(=S)N(CCCCCC(=O)Nc3cc(C)on3)C2=O)cc1OC,6,1,-12,2,-1,0.4,1.5,1.2,-4,5
CCCS(=O)(=O)N1CCC(C(=O)N2CCC(Cc3ccccc3)CC2)CC1,-4,.,-5,-8,-4,-0.1,-5.6,.,-2,.
O=C(CCc1ccccc1)NNC(=S)NCCc1ccccc1,-7,5,-2,-3,3,0.1,-0.2,3.3,15,2
CCOc1ccccc1NC(=S)N1CCCCCC1,-4,4,-4,-14,-1,0.8,0.9,-1.5,-38,5
O=C(Oc1ccc2c(c1)OCO2)c1cc2c(s1)CCC2,9,.,-8,9,-14,-2.0,0.0,.,.,.
Cc1cc([N+](=O)[O-])ccc1NC(=O)Cc1ccc(F)cc1,2,10,6,-9,5,0.5,1.8,-1.8,2,4
COc1ccc(OC)c(NC(=O)c2cc(-c3ccc(C)cc3O)n[nH]2)c1,3,.,-22,1,-13,-1.9,-3.0,.,.,.
Cn1ncc(Br)c1C(=O)NC12CC3CC(CC(C3)C1)C2,0,-30*,6,-6,-5,1.5,2.0,-7.0*,-4,-20*
Cc1ccc(C(=O)Nn2cnc3scc(-c4cccs4)c3c2=O)c(O)c1,-6,.,23,14,35,0.5,3.9,.,5,.
COc1ccccc1NC(=O)C1=C(C)NC2=C(C(=O)CCC2)C1c1ccc(C)o1 (configuration not stated),-9,.,2,-30,?,0.5,-5.0,.,-8,.

(further entries)
Compound,Beta apoptosis,rRNA inh HTS,T cruzi repl,Beta2AR agonist,Calb FLC,Bfl-1 A1 inh,LANA-H2B inh,rRNA inh HTS RFP,ALR inh,rRNA inh HTS OD600
CC1CC(C)CN(C(=O)COC(=O)C2CCN(S(=O)(=O)c3ccc4c(c3)OCCO4)CC2)C1 (configuration not stated),-14,0,-4,4,3,0.0,-8.4,-0.6,-1,-7
CCCNc1nc2c(c(=O)n(C)c(=O)n2C)n1CCCc1ccccc1,4,10,0,-4,-15,-1.2,1.0,-0.4,13,7
Cc1ccc(C(=O)OCC(=O)N2CCCCCC2)cc1S(=O)(=O)N1CCOCC1,1,-2,.,5,.,0.8,-1.4,-5.1,-23,-7
Cc1ccc(NC(=O)Nc2cccc([N+](=O)[O-])c2)cc1F,93*,-58,55*,11,-27,0.3,.,-28,.,-79
COc1ccc(OC)c(S(=O)(=O)N2CCCC2C(=O)NC(C)c2ccccc2)c1 (configuration not stated),4,12,1,-6,-4,0.6,2.1,0.0,-11,10
CC(C)NCC(=O)C12CC3CC(CC(C3)C1)C2,-8,16,11,0,-3,0.6,3.6,0.6,-14,3
Cn1nc(-c2ccccc2)c(C(=O)Nc2ccc(C(F)(F)F)cc2)c1Cl,-5,.,28,4,-10,0.0,4.7,.,0,.
CCCCCn1c(=O)[nH]c2cc(C(=O)N3CCN(C(=O)OCC)CC3)ccc2c1=O,0,2,15,-3,0,1.1,4.2,1.1,-1,4
O=C(OCC(=O)N1CCN(c2ccccc2)CC1)c1ccccc1[N+](=O)[O-],.,0,-3,-5,2,0.1,-1.2,-1.7,27,0
CC(C)c1ccccc1NC(=O)c1ccc2ncsc2c1,-8,-1,0,4,-22,-0.2,5.4,-0.6,-5,1

More records:
Compound,Beta apoptosis,rRNA inh HTS,T cruzi repl,Beta2AR agonist,Calb FLC,Bfl-1 A1 inh,LANA-H2B inh,rRNA inh HTS RFP,ALR inh,rRNA inh HTS OD600
c1cc(-c2noc(CC3CCCCC3)n2)ccn1,79*,.,7,-3,.,0.6,0.2,.,-5,.
CC1=C(C(=O)Nc2ccc([N+](=O)[O-])cc2)C(c2cccc(C(F)(F)F)c2)NC(=S)N1c1ccccc1 (configuration not stated),6,.,57*,7,71,1.0,-2.4,.,-15,.
O=C(C[n+]1cccc(CNC(=O)c2ccc(OC(F)F)cc2)c1)Nc1ccc(SC(F)F)cc1,-3,.,-1,-3,2,0.3,-2.8,.,-44,.
CC(=O)NCCNC(=O)c1ccc(NC2=NC3CS(=O)(=O)CC3S2)cc1 (configuration not stated),11,12,23,1,2,0.8,-5.0,-1.4,.,0
COc1ccc(-c2cn3c(C)c(C(=O)NCCN4CCOCC4)sc3n2)cc1,-8,.,6,-4,-2,0.1,4.1,.,35,.
COCCCNC(=O)c1cccc(OC)c1OC,-4,.,-10,38,5,0.3,7.4,.,-11,.
C[C@@]12CCC3[C@@](CCC4[C@@]3(C)CCC[C@@]4(C)C(=O)N3CCCCC3)(CC1=O)C2 (some centres not stated),2,10,.,-7,.,-0.5,0.2,1.9,-3,14
O=[N+]([O-])/C=C/c1ccc2c(ccn2Cc2ccccc2)c1,102*,-52,43,48*,-16,9.9*,-0.7,-12,-5,-47
O=C(Cc1ccccc1F)Nc1ccc(S(=O)(=O)Nc2ncccn2)cc1,0,2,0,7,-3,-1.7,4.4,-1.0,-6,10
COc1ccc(-c2c(C)oc3ccc(C)cc23)cc1,4,.,-6,4,-26,0.1,-1.3,.,-12,.

Next part
Compound,Beta apoptosis,rRNA inh HTS,T cruzi repl,Beta2AR agonist,Calb FLC,Bfl-1 A1 inh,LANA-H2B inh,rRNA inh HTS RFP,ALR inh,rRNA inh HTS OD600
CC(Oc1ccccc1)C(=O)NNS(=O)(=O)c1ccc([N+](=O)[O-])cc1 (configuration not stated),4,12,-6,-5,2,0.4,-6.7,3.4,-11,18
Cc1cccc(OCC(=O)N/N=C/c2ccc(N(C)C)cc2)c1,2,3,-3,0,-29,-0.1,1.4,-0.7,98*,2
CN1C(=O)c2ccccc2N(C)C1c1ccc2c(c1)OCO2 (configuration not stated),.,.,-7,4,-4,0.2,-0.4,.,.,.
O=C(Nc1cccc(-c2cscn2)c1)C1CCN(Cc2ccsc2)CC1,-3,10,9,-9,-7,0.2,4.9,1.1,-1,4
Cc1ccc(/C=N/NC(=O)c2ccncc2)o1,-5,13,-15,-5,3,-0.7,-1.2,-8.3,0,19
Cc1cc(Nc2ccc(Cl)cc2)n(-c2ccccc2)n1,-8,.,12,-8,-6,-0.8,-4.2,.,98*,.
CCOc1ccccc1CN(CCc1ccc2c(c1)OCO2)Cc1ccccn1,11,.,1,8,-14,-0.1,-0.5,.,-6,.
N#CCN(N=Nc1ccccc1)c1ccccc1,-7,29,1,1,-25,-1.9,3.6,-1.4,-14,14
CC(=O)N1[C@H](Cc2ccccc2)C=C[C@]1(C)C(=O)NCc1ccccn1,1,12,2,-2,-4,-0.2,2.1,1.9,-9,9
CC(C)CC(OC(=O)c1ccco1)C(=O)NCC1CCCO1 (configuration not stated),-11,.,-2,1,-8,0.5,0.8,.,0,.
O=C(CCN1CCCO1)N1CCCC(N2CCN(c3ccccc3F)CC2)C1 (configuration not stated),-4,1,4,-8,-12,-1.2,-0.8,-0.6,-10,-1
